High-throughput results deposited in PubChem by several laboratories.
CSM14.1 death rescue = protection against thapsigargin-triggered cell killing – 384-well, CSM14.1, ATP luminescence, primary screen (AID 1222); CSM14.1 thapsigargin-induced death rescue, ATP luminescence; higher % means a stronger effect; one-dose cellular ATP content (survival), % at 20 µM; EC50 in µM for titrated hits; 190,000 tested, under 10 active;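 active = EC50 below 50 µM in the dose-response confirmation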;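 note: death triggered by thapsigargin at about 15 µM added after 2 h compound pretreatment; cell ATP read after overnight thapsigargin exposure of roughly 18 to 22 hours; normalized against plate controls of thapsigargin alone and 5% DMSO vehicle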
Insulin prom up = MIN6 insulin promoter up-regulation; 0.3% of 190,000 active; z-score at 5 µM; AID 1625; MIN6 insulin promoter-GFP reporter, high-content imaging; hits give high values;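 active = z-score above 3 at 5 µM with at least 500 cells counted in the well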
PMI inhibition = human PMI inhibitors, high substrate, primary screen, biochemical, fluorescence intensity, high mannose 6-phosphate (AID 1220). recombinant PMI enzyme, coupled fluorescence intensity; higher % means a stronger effect. one-dose inhibition, % at 20 µM; IC50 in µM for titrated hits. 0.66% of 190,000 active
human PMI inhibition = MPI enzyme activity inhibition – biochemical, fluorescence intensity, coupled assay, primary screen (AID 1209); inhibition, % at 20 µM, or IC50 in µM where a hit was titrated; 0.42% of 190,000 active; purified PMI enzyme, coupled fluorescence intensity; higher % means a stronger effect;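 note: plate controls were DMSO vehicle for no effect and wells lacking substrate for full effect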
Large T inhibition = TAg ATPase/helicase activity blockers – biochemical (AID 1903); SV40 large T antigen ATPase/helicase inhibition assay; higher % means a stronger effect; inhibition, % at 20 µM, or IC50 in µM where a hit was titrated; 0.39% of 310,000 active; in the data active = a potency from the dose series; note: strong numbers were not always called active
Insulin prom up cell count = second read-out of Insulin prom up, no call of its own (marks repeat the call); cell count; measured here: cytotoxicity, nuclei count;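 total cells summed across four imaged fields per well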
Starred values were filed as active, the others as inactive. Cut-off read from the data, not from the text of the source, unless noted: active = inhibition above about 50%; inactive = the rest. This is a subset; count on the stated rates, not on these rows.

Screening O=C(Nc1ncn[nH]1)c1cccc(S(=O)(=O)N2CCOCC2)c1 returned CSM14.1 death rescue -0.1%, Insulin prom up 0.43, PMI inhibition 0%, human PMI inhibition 2%, Large T inhibition 4% and Insulin prom up cell count 1426.
CC(=O)Oc1c(C)c(C)c2c(c1C)CCC(C)(CCCC(C)CCCC(C)CCCC(C)C)O2 (centres undefined) was read as Large T inhibition 28%.
CN1CCN(c2c(F)cc3c(=O)c(C(=O)O)cn(CCF)c3c2F)CC1 was read as CSM14.1 death rescue 1.0%, Insulin prom up 0.31, PMI inhibition 11%, human PMI inhibition 14%, Large T inhibition 2% and Insulin prom up cell count 1486.
`CNC(=O)N(c1ccccc1)c1ccccc1` gave CSM14.1 death rescue -2.1%, Insulin prom up 1.1, PMI inhibition 10%, human PMI inhibition 6%, Large T inhibition 8% and Insulin prom up cell count 1596.
`Nc1ccc(S(=O)(=O)Nc2ccc(Cl)nn2)cc1` gave Insulin prom up -0.14, Large T inhibition 17% and Insulin prom up cell count 1100.
`COc1ccc(Nc2nnc(SCc3cn4c(C)cccc4n3)s2)cc1` gave CSM14.1 death rescue 0.0%, PMI inhibition 1%, human PMI inhibition 9% and Large T inhibition 8%.
CC(C)(C)c1cc(Br)ccc1OCC(=O)Nc1ncn[nH]1 was read as CSM14.1 death rescue -0.8%, Insulin prom up -1.3, PMI inhibition -3%, human PMI inhibition 2%, Large T inhibition 6% and Insulin prom up cell count 909.
CCc1c(C(=O)NNC(=S)NCC2CCCO2)csc1C (centres undefined) was read as CSM14.1 death rescue -1.2%, Insulin prom up 0.2, PMI inhibition -2%, human PMI inhibition -6%, Large T inhibition 5% and Insulin prom up cell count 1221.
For Oc1ccc(/C=N/Nc2ccc(Cl)nn2)c(O)c1O the results were Large T inhibition -34%.
`NC1=NC2(CCCCC2)N=C(Nc2ccc(Br)cc2)N1` gave CSM14.1 death rescue -1.4%, Insulin prom up 1.8, PMI inhibition 5%, human PMI inhibition 15%, Large T inhibition 2% and Insulin prom up cell count 1602.
CC(C)(C)c1ccc(C(=O)Nc2ncn[nH]2)cc1 was read as CSM14.1 death rescue -1.5%, Insulin prom up 0.81, PMI inhibition 4%, human PMI inhibition 7%, Large T inhibition 10% and Insulin prom up cell count 1467.
Screening CN1C(C(=O)Nc2ccccn2)=C(O)c2sccc2S1(=O)=O returned CSM14.1 death rescue 6.8%, PMI inhibition -27%, human PMI inhibition -30% and Large T inhibition 15%.
`O=C(O)CC(O)C(=O)O` (centres undefined) gave CSM14.1 death rescue 3.5%, PMI inhibition -1%, human PMI inhibition -3% and Large T inhibition 2%.
Cc1cccc(C)c1OCC(=O)Nc1ncn[nH]1 was read as CSM14.1 death rescue 1.9%, Insulin prom up -0.61, PMI inhibition -4%, human PMI inhibition 8%, Large T inhibition -7% and Insulin prom up cell count 1025.
Screening Cc1ccccc1C(=O)N/N=C/c1ccc(Sc2ccccn2)o1 returned CSM14.1 death rescue -2.9%, Insulin prom up -0.09, PMI inhibition -4%, human PMI inhibition 7%, Large T inhibition 26% and Insulin prom up cell count 1319.
CC(C)C(=O)NC(c1cccc([N+](=O)[O-])c1)c1ccc2cccnc2c1O (centres undefined) was read as Large T inhibition 1%.
Screening Cc1ccc(NC(=S)NNC(=O)c2c(Cl)c(C)nn2C)cc1 returned CSM14.1 death rescue 1.8%, Insulin prom up -0.58, PMI inhibition -6%, human PMI inhibition -10%, Large T inhibition 21% and Insulin prom up cell count 1132.

A stretch from the list above, as a working copy:
Screening O=C(Nc1ncn[nH]1)c1cccc(S(=O)(=O)N2CCOCC2)c1 returned CSM14.1 death rescue -0.1%, Insulin prom up 0.43, PMI inhibition 0%, human PMI inhibition 2%, Large T inhibition 4% and Insulin prom up cell count 1426.
CC(=O)Oc1c(C)c(C)c2c(c1C)CCC(C)(CCCC(C)CCCC(C)CCCC(C)C)O2 (centres undefined) was read as Large T inhibition 28%.
CN1CCN(c2c(F)cc3c(=O)c(C(=O)O)cn(CCF)c3c2F)CC1 was read as CSM14.1 death rescue 1.0%, Insulin prom up 0.31, PMI inhibition 11%, human PMI inhibition 14%, Large T inhibition 2% and Insulin prom up cell count 1486.
`CNC(=O)N(c1ccccc1)c1ccccc1` gave CSM14.1 death rescue -2.1%, Insulin prom up 1.1, PMI inhibition 10%, human PMI inhibition 6%, Large T inhibition 8% and Insulin prom up cell count 1596.
`Nc1ccc(S(=O)(=O)Nc2ccc(Cl)nn2)cc1` gave Insulin prom up -0.14, Large T inhibition 17% and Insulin prom up cell count 1100.
`COc1ccc(Nc2nnc(SCc3cn4c(C)cccc4n3)s2)cc1` gave CSM14.1 death rescue 0.0%, PMI inhibition 1%, human PMI inhibition 9% and Large T inhibition 8%.
CC(C)(C)c1cc(Br)ccc1OCC(=O)Nc1ncn[nH]1 was read as CSM14.1 death rescue -0.8%, Insulin prom up -1.3, PMI inhibition -3%, human PMI inhibition 2%, Large T inhibition 6% and Insulin prom up cell count 909.
CCc1c(C(=O)NNC(=S)NCC2CCCO2)csc1C (centres undefined) was read as CSM14.1 death rescue -1.2%, Insulin prom up 0.2, PMI inhibition -2%, human PMI inhibition -6%, Large T inhibition 5% and Insulin prom up cell count 1221.
For Oc1ccc(/C=N/Nc2ccc(Cl)nn2)c(O)c1O the results were Large T inhibition -34%.
